fixLJ activator: increases Burkholderia fixLJ two-component signaling. B. multivorans fixK-promoter GFP reporter, 18 h; active compounds read high. z-score (test concentration not listed). 0.3% of 29,000 active. AID 1918990;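 active means replicate mean overnight rise in green fluorescent reporter signal, 3 or more SD over negative controls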;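 further: score is relative to vehicle wells of the plate; 300 nL library stock went into each well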
Active calls of the source: *; & = joins results of further samples.

For COc1ccc(Cn2c(SCc3ccc(C(=O)NC(C)c4ccccc4)cc3)nc3cccnc32)cc1 (configuration not stated) the results were fixLJ activator -0.74.
COC(=O)c1ccccc1NC(=O)Cn1c(=O)n(Cc2ccc(C(=O)NCc3ccc4c(c3)OCO4)cc2)c(=O)c2ccccc21 was read as fixLJ activator -0.19.
Cc1cccc(NC(=O)N2CCC3(CC2)Oc2ccccc2C(=O)N3Cc2ccccc2F)c1C was read as fixLJ activator -0.57.
For O=C(Nc1ccc(Br)c2cccnc12)c1cccc2ccccc12 the results were fixLJ activator -1.6.
For Cc1ccc(CCNC(c2ccc(F)cc2)c2nnc(-c3ccccc3Cl)o2)cc1 (configuration not stated) the results were fixLJ activator 1.4.
CC(=O)c1c(C)nn(CCC(=O)N2CC(O)C(Cc3cc(C)[nH]n3)C2)c1C (configuration not stated) was read as fixLJ activator -1.2.
O=C(O)c1cncc(N2CCC(C(O)CCc3ccccc3)CC2)n1 (configuration not stated) was read as fixLJ activator -0.82.
For CCOC(=O)C1CCCN(C(=O)c2cc3c(=O)[nH]c4ccc(C)cc4c3s2)C1 (configuration not stated) the results were fixLJ activator -1.5.
`CCCCOC(=O)c1ccccc1C(=O)OCCCC` gave fixLJ activator -0.38.
For CCOc1ccccc1NC(=O)CSc1nc2ccccc2nc1N1CCOCC1 the results were fixLJ activator 1.7.
COc1ccc(OC)c(CNC(=O)CN(c2ccc(C)cc2)S(=O)(=O)N(C)C)c1 was read as fixLJ activator -0.36.
For CCOc1ccc2c(C)c(C(=O)N3CCCC(CCC(N)=O)C3)oc2c1OCC (configuration not stated) the results were fixLJ activator -2.7.
For Cc1ccc2nc(NCCc3ccccc3)c3nncn3c2c1 the results were fixLJ activator -0.9.
Screening Cc1cccc(N2CCN(Cc3nnc(-c4ccccc4C)o3)CC2C)c1 (configuration not stated) returned fixLJ activator -1.4.
Screening Cc1ncnc(N2CCN(C(=O)CSc3ccncc3)CC2)c1C returned fixLJ activator -0.14.
COc1ccccc1NC(=O)CCCc1nnc2n(C)c(=O)c3sccc3n12 was read as fixLJ activator 0.04.
For O=S(=O)(c1ccccc1)c1nc(-c2cccc(Cl)c2)oc1NCc1ccccc1 the results were fixLJ activator 0.42.
`Cc1ccc(-c2cc(C(F)(F)F)n3nc(C(=O)Nc4ccc(Cl)cc4Cl)cc3n2)cc1` gave fixLJ activator -0.09.
Screening Cc1oc(-c2ccc(Cl)cc2)nc1CN1CCCC(C(=O)NCCc2ccccc2)C1 (configuration not stated) returned fixLJ activator -1.4.
Screening O=C(CC1Nc2cccc3cccc(c23)NC1=O)Nc1ccc(F)cc1 (configuration not stated) returned fixLJ activator 0.96.
`COc1ccc(/C=C/c2nc(C#N)c(NCc3ccc(C)cc3)o2)cc1OC` gave fixLJ activator 0.04.
For O=C(Nc1ccc2oc(-c3cccnc3)nc2c1)c1ccc(-c2ccccc2OC(F)(F)F)o1 the results were fixLJ activator 0.36.
For CCc1nc(C)c(C(=O)NC(c2ccccc2)c2ccco2)o1 (configuration not stated) the results were fixLJ activator -0.26.
For CCn1c(=O)c2sccc2n2c(CCC(=O)Nc3ccc(OC)cc3OC)nnc12 the results were fixLJ activator -0.38.
Cc1ccc(C(=O)N(Cc2ccc(N(C)C)cc2)CC2CCCO2)cc1 (configuration not stated) was read as fixLJ activator -0.06.
Screening Cn1c(-c2ccccc2Cl)nc2cc(C(=O)NC3CCC3)cnc21 returned fixLJ activator -1.3.
Screening CC1Cc2cc(NC(=O)NCCc3c[nH]c(=O)[nH]c3=O)ccc2O1 (configuration not stated) returned fixLJ activator 0.27.
For CNC(=O)Oc1ccc2c(c1)[C@]1(C)CCN(C)[C@@H]1N2C the results were fixLJ activator -1.8&-0.4.
For COc1ccc(-c2noc(CSc3nnc(-c4ccccc4)n3C)n2)cc1 the results were fixLJ activator -0.42.
COc1cc(CNCc2c(C(=O)O)c(C)n(Cc3cccc(Cl)c3)c2C)cc(OC)c1OC was read as fixLJ activator -0.23.
CC1OC1P(=O)(O)O (configuration not stated) was read as fixLJ activator -1.2.
CCOc1ccc(OCC)c(NC(=O)c2nnn(Cc3cc(Br)ccc3OC)c2N)c1 was read as fixLJ activator -0.38.
Screening O=C(c1ccco1)N1CCCC(NCc2cc3ccccc3[nH]c2=O)C1 (configuration not stated) returned fixLJ activator -0.19.
For COc1ccccc1-c1cc2nc(C)c(CCC(=O)O)c(C)n2n1 the results were fixLJ activator -0.03.
`CC(=O)N1CCC(N2CC(O)C(Cc3ccnc4ccccc34)C2)CC1` (configuration not stated) gave fixLJ activator -0.28.
Screening Nc1nc2c(ncn2CCC(CO)CO)c(=O)[nH]1 returned fixLJ activator -1.5.

In the list so far, these contain a halogen:
Cc1cccc(NC(=O)N2CCC3(CC2)Oc2ccccc2C(=O)N3Cc2ccccc2F)c1C was read as fixLJ activator -0.57.
For O=C(Nc1ccc(Br)c2cccnc12)c1cccc2ccccc12 the results were fixLJ activator -1.6.
For Cc1ccc(CCNC(c2ccc(F)cc2)c2nnc(-c3ccccc3Cl)o2)cc1 (configuration not stated) the results were fixLJ activator 1.4.
For O=S(=O)(c1ccccc1)c1nc(-c2cccc(Cl)c2)oc1NCc1ccccc1 the results were fixLJ activator 0.42.
`Cc1ccc(-c2cc(C(F)(F)F)n3nc(C(=O)Nc4ccc(Cl)cc4Cl)cc3n2)cc1` gave fixLJ activator -0.09.
Screening Cc1oc(-c2ccc(Cl)cc2)nc1CN1CCCC(C(=O)NCCc2ccccc2)C1 (configuration not stated) returned fixLJ activator -1.4.
Screening O=C(CC1Nc2cccc3cccc(c23)NC1=O)Nc1ccc(F)cc1 (configuration not stated) returned fixLJ activator 0.96.
For O=C(Nc1ccc2oc(-c3cccnc3)nc2c1)c1ccc(-c2ccccc2OC(F)(F)F)o1 the results were fixLJ activator 0.36.
Screening Cn1c(-c2ccccc2Cl)nc2cc(C(=O)NC3CCC3)cnc21 returned fixLJ activator -1.3.
COc1cc(CNCc2c(C(=O)O)c(C)n(Cc3cccc(Cl)c3)c2C)cc(OC)c1OC was read as fixLJ activator -0.23.
CCOc1ccc(OCC)c(NC(=O)c2nnn(Cc3cc(Br)ccc3OC)c2N)c1 was read as fixLJ activator -0.38.

New compounds follow
Cc1ccc(-n2nc(CO)c(C(=O)NCc3ccccn3)n2)cc1 was read as fixLJ activator -0.82.
Screening Cc1ccn2c(Nc3ccc(C(C)C)cc3)c(-c3ccsc3)nc2c1 returned fixLJ activator -0.52.
COc1ccc(Cl)cc1NC(=O)c1nnn(Cc2cccc(C(F)(F)F)c2)c1N was read as fixLJ activator 1.4.
CC1CCN(S(=O)(=O)c2ccc3c(c2)oc(=O)n3CC(=O)N2CCCCC2)CC1 was read as fixLJ activator -0.7.
Cc1cc(C)cc(OCC(=O)N(Cc2ccco2)Cc2ccccc2Cl)c1 was read as fixLJ activator 1.1.
`CCCCCc1ccc(-c2ccc(Br)cc2)nc1` gave fixLJ activator -1.2.
COC(=O)c1nnn(-c2cccc(C)c2)c1C(=O)OC was read as fixLJ activator -0.88.
For CCSc1ncc(Cl)c(C(=O)Nc2c(C(=O)Nc3cccc(C)c3)oc3ccccc23)n1 the results were fixLJ activator 0.22.
Cn1cc(C#N)cc1C(=O)Nc1cnn(Cc2ccccc2)c1 was read as fixLJ activator 0.16.
Screening COc1ccc(OC)c(NC(=O)CSc2c3c(nc4ccccc24)CCCC3)c1 returned fixLJ activator -0.34.
CCOCN(C(=O)Cn1c(COC)nc2ccccc21)c1c(C)cccc1CC was read as fixLJ activator -1.1.
For CCOC(=O)c1cccc(NC(=O)Nc2c(C)n(C)n(-c3ccccc3)c2=O)c1 the results were fixLJ activator -0.9.
`Cc1noc(C2CCN(C(=O)CSc3ccncc3)C2)n1` (configuration not stated) gave fixLJ activator 0.08.
`CCCCOc1ccc(C(=O)Nc2ccc3oc(-c4cccnc4)nc3c2)cc1` gave fixLJ activator -0.37.
Screening Oc1ccccc1Nc1nc(-c2ccccc2)c2cc(Cl)ccc2n1 returned fixLJ activator 0.89.
For COc1ccccc1CNC(=O)CN(c1ccc(C)cc1)S(=O)(=O)c1c(C)noc1C the results were fixLJ activator -0.6.
Screening COc1ccc(CCNC(=O)CCc2c(C)nc3cc(-c4ccccc4)nn3c2C)cc1OC returned fixLJ activator -1.7.
Screening O=C1CC(c2nnc(Cc3ccc(Cl)cc3)o2)CN1c1ccccc1 (configuration not stated) returned fixLJ activator 0.07.
For CC1CCN(S(=O)(=O)c2ccc3c(c2)CCN3C(=O)Nc2cccc(Br)c2)CC1 the results were fixLJ activator -0.9.
For CC(C)Cc1nc2ccccc2n1C(C)C(=O)NCCN1CCNC1=O (configuration not stated) the results were fixLJ activator -3.3.
Screening Cc1ccc(-c2nnc(C3CCN(S(=O)(=O)c4ccc(C)c(C)c4)CC3)o2)cc1 returned fixLJ activator 0.42.
For CCCN(C(=O)Cc1c(C(=O)O)[nH]c2ccc(Cl)cc12)c1ccc(OCC)cc1 the results were fixLJ activator 0.18.
CC(C)c1nc(CCN(C)C(=O)Nc2ccc(C(N)=O)c(Cl)c2)no1 was read as fixLJ activator -0.65.
Screening Cc1noc(C)c1CN1CCc2c(C(=O)NC3(C)CCC3)csc2C1 returned fixLJ activator 1.4.
`Cc1nc2c(-c3ccccc3)c(C)nn2c(C)c1CCC(=O)NCc1ccc(F)cc1` gave fixLJ activator -0.11.
`Cc1ccc(S(=O)(=O)N(CC(=O)Nc2ccc3c(c2)OCO3)c2cc(Cl)cc(Cl)c2)cc1` gave fixLJ activator 1.1.
CCOC(=O)C1CCCN(c2c(C(=O)c3ccccc3)cnc3ccc(F)cc23)C1 (configuration not stated) was read as fixLJ activator 0.47.
`Cc1cccn2c(=O)c(/C=C(\C#N)c3nc4ccccc4n3C)c(Oc3ccc(Br)cc3)nc12` gave fixLJ activator -2.6.
Screening Cc1cc(C)cc(N(CC(=O)Nc2cccc(C)c2C)S(=O)(=O)c2c(C)[nH]c(=O)[nH]c2=O)c1 returned fixLJ activator -1.3.
Screening CCOC(=O)C1=C(C)NC(C)=C(C(=O)OC)C1c1cccc(Cl)c1Cl (configuration not stated) returned fixLJ activator -0.58.
Screening O=C(Cn1c(=O)n(Cc2ccc(Cl)cc2)c(=O)c2cccnc21)Nc1ccccc1C(F)(F)F returned fixLJ activator -0.21.
Screening COc1cccc(CN(C(=O)c2cccc(C)c2)C2CCS(=O)(=O)C2)c1 (configuration not stated) returned fixLJ activator -2.
`O=C(CSc1nc(-c2ccccc2)nc2c1Cc1ccccc1O2)N1CCCCC1` gave fixLJ activator -2.4.
Screening Cc1cccc(Cn2c(SCc3ccc(C(=O)NCc4cccs4)cc3)nc3ccncc32)c1 returned fixLJ activator -6.
Screening COc1ccc(C)cc1NS(=O)(=O)c1cc(Br)cc2c1N(C(C)=O)C(C)C2 (configuration not stated) returned fixLJ activator -1.4.
Cc1cc(C)cc(NC(=O)c2cccc3c2C(=O)N(C2CCCCC2)C3)c1 was read as fixLJ activator -1.8.
`COc1ccc(OCc2cc(C(=O)N3C(C)CCC3C)n[nH]2)c(Cl)c1` (configuration not stated) gave fixLJ activator -1.4.
For CC(O)CNC(=O)c1cc2c(s1)C1(CCN(C(=O)C3CCC3)CC1)OCC2 (configuration not stated) the results were fixLJ activator -0.79.
For CCC(=O)Nc1cc(Cl)ccc1C(=O)N(C)Cc1cn(CC)nc1C the results were fixLJ activator 0.37.
COCC1(CNS(=O)(=O)c2cccc(Cl)c2)CCC1 was read as fixLJ activator -0.05.
`CC1(C)CC2C[C@@](C)(CN2C(=O)NCCc2noc(CO)n2)C1` gave fixLJ activator 0.48.
CCc1ccc(C2c3c(-c4cc(C)ccc4O)n[nH]c3C(=O)N2CCO)cc1 (configuration not stated) was read as fixLJ activator -2.8.
Screening O=C(c1cnccn1)N1CCC(c2nccn2Cc2cscn2)CC1 returned fixLJ activator 0.86.
For Cc1cc(C)nc(NCC2CN(Cc3ccccc3)CCCO2)n1 (configuration not stated) the results were fixLJ activator -4.4.
Screening O=C(Cn1c(=O)n(-c2ccc(F)cc2)c(=O)c2sc3ccccc3c21)NC1CCCC1 returned fixLJ activator -1.
For Cc1ccc(C)c(CN2C(=O)C(O)(c3c(C)[nH]c4ccccc34)c3ccccc32)c1 (configuration not stated) the results were fixLJ activator -1.2.
For Cc1ccc(-n2nc(C(=O)N(C)c3ccc(C)c(C)c3)c3c4ccccc4n(C)c3c2=O)cc1 the results were fixLJ activator -0.77.
For COc1ccc(CN2C(=O)OC3CN(Cc4cnc(C)[nH]4)CC32)cc1OC (configuration not stated) the results were fixLJ activator -0.11.
For CN1C(C(=O)c2ccccc2)=C(NC(=O)c2ccccc2Br)c2ccccc2S1(=O)=O the results were fixLJ activator 3.6*.
For CCCCOc1ccc(C(=O)N2CC(=O)Nc3ccc(Br)cc3C2c2ccc(F)cc2)cc1 (configuration not stated) the results were fixLJ activator -0.5.
Screening CCN(CC)S(=O)(=O)c1ccc(C(=O)NCCSc2c(-c3ccccc3)[nH]c3ccccc23)cc1 returned fixLJ activator 2.6.
Screening COC(=O)c1cc2sc(Cl)cc2n1Cc1cc(C)ccc1C returned fixLJ activator -1.7.
`O=C1c2[nH]nc(-c3ccccc3O)c2C(c2cccc(OCc3ccccc3)c2)N1CCO` (configuration not stated) gave fixLJ activator -3.2.
COc1ccc(NC(=O)c2nc(SCc3ccc(F)cc3)ncc2Cl)cc1 was read as fixLJ activator 0.06.
Cc1cccc(C)c1OCc1cc(=O)n2ccsc2n1 was read as fixLJ activator 0.2.

Bioassay records as filed in PubChem.

These rows are one share of the data; rates above refer to the full screens.
